From PubChem BioAssay
rRNA inh HTS = inhibits bacterial ribosomal RNA function over humanized ribosomes; E. coli WT GFP vs humanized-ribosome RFP mutants, fluorescence, 24 h; hits give low values; DMSO median 0, no signal -100; GFP signal change (wild-type ribosome), % (test concentration not listed); actives 1.6% (n = 350,000); AID 720706;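 active = significant combined selectivity score with lowered wild-type GFP, culture density cut under 30%, mutant RFP and density less affected; inactive = any of these conditions unmet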; also: one replicate is shown; some compounds called inactive have numbers as strong as hits
AF4-AF9 inh = inhibitors of human MLL-AF4/AF9 interaction; P42568; AlphaScreen, biotin-AF4 peptide binding to FLAG-AF9; inhibition, % at 10 µM; actives 0.47% (n = 350,000); AID 651704;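 active = every replicate reaching a set inhibition limit, whatever the replicate mean, cut at about 25% in these data; inconclusive = mean inhibition reaches that limit but some replicates miss it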;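 also: 0% = plate neutral control median and 100% = total signal loss; the record names both 10 and 1 µM as test concentration; the first replicate is given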
Target sequence (P42568 whole entry, looked up): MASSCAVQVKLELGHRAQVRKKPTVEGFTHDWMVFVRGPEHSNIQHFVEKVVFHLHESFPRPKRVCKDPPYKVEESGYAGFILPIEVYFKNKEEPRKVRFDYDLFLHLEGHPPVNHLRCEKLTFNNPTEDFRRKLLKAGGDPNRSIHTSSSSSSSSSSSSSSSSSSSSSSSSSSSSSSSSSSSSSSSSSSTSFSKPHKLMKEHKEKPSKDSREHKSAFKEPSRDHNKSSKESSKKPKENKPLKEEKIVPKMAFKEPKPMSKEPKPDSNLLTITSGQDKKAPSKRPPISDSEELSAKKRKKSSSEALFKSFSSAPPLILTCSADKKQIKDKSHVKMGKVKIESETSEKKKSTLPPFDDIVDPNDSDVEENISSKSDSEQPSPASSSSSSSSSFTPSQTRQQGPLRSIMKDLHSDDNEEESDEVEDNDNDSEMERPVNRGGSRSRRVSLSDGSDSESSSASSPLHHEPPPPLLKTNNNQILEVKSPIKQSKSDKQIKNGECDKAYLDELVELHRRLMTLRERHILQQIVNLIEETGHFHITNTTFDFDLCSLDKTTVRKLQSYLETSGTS
ALR inh = human ALR oxidase inhibition via reduced H2O2. P55789. purified ALR, DTT oxidation, H2O2 HRP-luminol luminescence. inhibition, % (no concentration beside the values). actives 3.8% (n = 290,000);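 active = mean and each replicate at 75% or more; inconclusive = only one of the two met; inactive = neither met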;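 also: stock transfer was 7.5 nL into about 7.5 µL; 0% = neutral wells and 100% = wells with inactivated enzyme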
Target sequence (P55789 whole entry, looked up): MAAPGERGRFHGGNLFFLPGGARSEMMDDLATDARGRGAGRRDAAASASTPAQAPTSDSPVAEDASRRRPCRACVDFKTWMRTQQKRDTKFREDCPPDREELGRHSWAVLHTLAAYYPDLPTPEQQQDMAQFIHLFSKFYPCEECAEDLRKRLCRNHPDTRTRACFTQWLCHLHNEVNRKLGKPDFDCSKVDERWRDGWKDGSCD
FGF22 binding = binders of recombinant human FGF22 by thermal shift; Q9HCT0; SYPRO orange fluorescence; percent of sucrose octasulfate shift, DMSO zero; calls only at 9.99 µM; actives 1.5% (n = 340,000);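 active = melting point raised past a set limit in the mean and every replicate; inconclusive = no clear call; three in four hits are not shown here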
Target sequence (Q9HCT0 whole entry, looked up): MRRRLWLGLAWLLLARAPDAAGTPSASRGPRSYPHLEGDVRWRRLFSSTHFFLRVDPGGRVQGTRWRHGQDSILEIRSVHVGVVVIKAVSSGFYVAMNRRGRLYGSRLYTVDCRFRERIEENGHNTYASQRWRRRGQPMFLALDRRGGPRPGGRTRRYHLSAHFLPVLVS
Beta apoptosis = blocks beta cell apoptosis; INS-1E cytokine-induced death, ATP luminescence, 48 h; percent of positive-control rescue, neutral wells zero; protection from apoptosis, % (test concentration not listed); actives 0.8% (n = 300,000); AID 435005;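 active = all replicates at 75% or more, or half of them and the mean; inconclusive = half reach 75% but not the mean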;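 also: 0% = cytokine-treated negative control wells and 100% = positive control rescue; higher means more ATP so stronger rescue from cytokine killing; wells of about 40 µL received 100 nL stock; the first replicate is given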
T cruzi inh = blocks replication of Trypanosoma cruzi; inhibition, % (no concentration beside the values); T. cruzi beta-gal in NIH3T3, luminescence, 90 h; AID 1885; actives 1.4% (n = 300,000);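 active = mean inhibition across valid replicates above about 55%, limit read from the data; inconclusive = mean below that limit but half or more replicates reach it; inactive = mean below it, under half of replicates reach it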;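 also: signal also drops with host cell toxicity which is not excluded here; 0% = plate median of DMSO wells and 100% = zero luminescence signal; higher percent means less beta-gal luminescence so fewer parasites; stock transfer was 50 nL into about 50 µL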
Calb FLC = C. albicans growth modulation with fluconazole. actives 0.57% (n = 300,000). growth inhibition, % (test concentration not listed). C. albicans CaCi-2 (fluconazole-resistant clinical isolate) + fluconazole, Alamar Blue growth, 48 h. AID 1979;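 active = most replicates above 75%; inconclusive = exactly half above 75%; inactive = most below 75%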;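 also: all wells also contain fluconazole at 8 µg/ml as a sub-toxic cotreatment; 0% = median of DMSO wells and 100% = median of geldanamycin control wells; wells of about 8 µL received 7.5 nL stock; the first replicate is given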
RanGTP-Imp inh = inhibitors of RanGTP-importin-beta interaction, primary screen, biochemical, FRET, CFP-Ran, YFP-importin-beta, homogeneous. cell-free CFP-Ran/YFP-importin-beta FRET ratio. inhibition, % (concentration not given with the values). actives 1.1% (n = 300,000);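 active = most replicates above 15%; inconclusive = exactly half above 15%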;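 also: 0% = DMSO wells and 100% = Ran loaded with GDP instead of GTP; wells of about 40 µL received 100 nL stock; the first replicate is given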
rRNA inh HTS OD600 = further read-out of rRNA inh HTS, marked with its call; OD600 change, %; measured here: OD600 growth;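 optical density of the mix in the first replicate; 0 = DMSO median and -100 = no signal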
rRNA inh HTS RFP = second read-out of rRNA inh HTS, no call of its own (marks repeat the call); RFP signal change, %; measured here: RFP humanized mutant strains;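 first replicate; 0 = DMSO median and -100 = no signal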
* marks the source's active call; other numbers are inactive results; i = inactive; ? = inconclusive; nt = not tested or not shown.

SMILES	rRNA inh HTS	rRNA inh HTS OD600	rRNA inh HTS RFP	AF4-AF9 inh	ALR inh	FGF22 binding	Beta apoptosis	T cruzi inh	Calb FLC	RanGTP-Imp inh
O=C(Cc1ccccc1)Nc1c(Cl)ccc2nsnc12	6	0	-1.1	-1.6	-4	i	2	-4	-2	-1.2
CCOC(=O)Cc1csc(NC(NC(=O)OCC)(C(=O)OCC)C(F)(F)F)n1 (stereo not given)	nt	nt	nt	nt	nt	nt	-10	-9	-4	2.8
COc1ccc(Cl)cc1NC(=O)CN(C)CC(=O)N(CC(C)C)c1c(N)n(CC(C)C)c(=O)[nH]c1=O	7	-3	-1.1	0.7	nt	i	6	nt	nt	nt
COC(=O)c1ccc(C(=O)Nc2nc3cc(N)c(C)cc3s2)cc1	6	9	-0.3	-22	-2	i	-3	17	nt	4.1
CCCOc1ccc(N2C(=O)C3ON(c4ccccc4)C(c4ccc(O)c(OC)c4)C3C2=O)cc1 (stereo not given)	nt	nt	nt	nt	-4	nt	0	-8	0	1.2
Cc1sc(NC(=O)/C=C/C(=O)O)c(C(N)=O)c1-c1ccc(C(C)(C)C)cc1	nt	nt	nt	nt	nt	nt	-11	-23	23	-4.3
COC(=O)c1ccc(OC(=O)c2ccc(OC)cc2)c(OC)c1	2	-2	-1.1	-1.4	nt	i	-4	-13	11	5.4
Cc1ccc(NC(=O)CSc2n[nH]c(-c3ccco3)n2)cc1	9	4	2.5	-1.7	3	i	-3	-4	19	6.0
O=[N+]([O-])c1ccc(N2CCN(CCO)CC2)cc1Sc1ccccn1	11	5	-1.5	3.0	-7	i	1	17	-13	6.6
Cc1csc2nc(O)c(C(=O)NCCCc3ccccc3)c(=O)n12	2	0	-0.1	-0.4	-5	i	nt	9	5	-2.2
C=CCOC(=O)C1=C(C)NC(C)=C(C(=O)OCC=C)C1c1cn(-c2ccccc2)nc1-c1ccco1	14	5	2.7	-5.7	-11	i	-12	15	0	-2.4
CCOC(=O)c1cc(C(=O)Nc2ccccc2F)nn1C	0	7	-7.7	-22	-5	i	-4	-8	-10	-0.4
CC(C(=O)N1CCCc2ccccc21)N1C(=O)c2ccccc2C1=O (stereo not given)	nt	nt	nt	nt	-9	nt	1	-4	-13	4.9
Cc1c(Cl)ccc2sc(NC(=O)CN3C(=O)c4ccccc4C3=O)nc12	1	6	-4.6	-2.1	-14	i	0	0	-4	1.4
O=C(COC(=O)c1cc(=O)[nH]c2ccc(Br)cc12)c1ccccc1	16	12	0.8	-1.6	-12	i	-4	-7	22	-1.6
Cc1noc(C)c1COc1ccccc1C(=O)Nc1ccc(C(N)=O)cc1	4	5	0.7	1.2	nt	i	1	nt	nt	nt
CC(C(=O)NCc1ccco1)n1cc(C(=O)c2ccco2)c2ccccc21 (stereo not given)	nt	nt	nt	nt	-7	nt	-7	3	13	-2.8
CC(=O)c1cccc(NC(=O)c2ccccc2OCc2ccc(F)cc2)c1	6	5	3.4	-0.9	nt	i	6	24	2	0.3
COc1ccc(NC(=S)NC(C)c2ccncc2)cc1OC (stereo not given)	4	7	0.2	-0.6	-12	i	-2	-1	27	-1.5
CC(C(=O)NCc1ccc(F)cc1)c1ccc([N+](=O)[O-])cc1 (stereo not given)	0	-2	-1.2	0.7	-1	i	-10	-13	-14	2.0
CCCCNC(=O)c1cc(S(=O)(=O)N2CCCCC2)oc1C	5	1	2.8	-1.0	-1	i	2	0	0	3.5
C/C(N)=C(/C#N)C(=O)CSc1nc2ccccc2c(=O)n1-c1ccccc1C	-30	-45	-8.5	-2.8	3	i	-2	13	23	-1.7
COc1cccc2c(C)nc(Nc3nc(CSc4nnc(C)s4)cc(=O)[nH]3)nc12	nt	nt	nt	nt	-11	nt	10	28	25	-2.3
CC(=O)OCc1c(-c2ccccc2)c2cc([N+](=O)[O-])ccc2n1C	-8	-2	-2.1	-15	-2	i	-2	-9	-10	1.2
O=C(NCCc1ccccc1)C(=O)NCC1CCCN1S(=O)(=O)c1ccccc1 (stereo not given)	-6	0	0.2	-3.5	0	i	1	2	4	-1.2
Remaining list, next part:
SMILES	rRNA inh HTS	rRNA inh HTS OD600	rRNA inh HTS RFP	AF4-AF9 inh	ALR inh	FGF22 binding	Beta apoptosis	T cruzi inh	Calb FLC	RanGTP-Imp inh
COc1ccc(-n2nc(C(=O)NCC(=O)N3CCC(C(N)=O)CC3)c3ccccc3c2=O)cc1OC	7	10	5.0	-1.3	2	i	-6	-12	-1	0.7
CC(C)(C)n1nnnc1C(c1cccnc1)N1CCN(c2ccccc2F)CC1 (stereo not given)	nt	nt	nt	nt	-3	nt	1	-11	-7	4.9
COC(=O)c1cc(OC)c(OC)cc1NC(=O)CN1C(=O)c2ccccc2C1=O	nt	nt	nt	-7.8	-17	nt	-21	7	?	4.0
Cc1cc(C)nc(NS(=O)(=O)c2ccc(NC(=O)NC3CCCCC3)cc2)n1	nt	nt	nt	nt	98*	nt	1	-11	0	-1.3
CC1CN(C(=O)CN(C)S(=O)(=O)c2ccc3ccccc3c2)CC(C)O1 (stereo not given)	8	7	3.2	7.9	4	i	1	-20	1	3.9
Cc1ccc(-c2noc(CSc3nnc(-c4ccncc4)n3-c3ccc(C)cc3)n2)cc1	nt	nt	nt	nt	-12	nt	-14	?	6	0.0
COc1cc(Br)cc(/C=N/NC(=O)Cc2ccc(C(F)(F)F)cc2[N+](=O)[O-])c1O	14	9	-2.1	6.8	-2	i	100*	29	11	-3.6
COc1ccc(-c2cc(CNC(=O)CCl)on2)cc1	nt	nt	nt	nt	-1	nt	-11	-13	-7	1.4
CNC(=O)CSc1n[nH]c(-c2cc(Cl)ccc2OC)n1	-4	-3	-1.9	-1.2	-1	i	-2	-13	15	0.2
O=c1c2ccccc2c(-c2ccc(Br)cc2)nn1Cc1ccccc1	nt	nt	nt	nt	-2	nt	11	22	24	1.6
CCOCCCNC(=O)CSCc1nc(-c2ccc(SC)cc2)oc1C	2	7	2.4	0.3	nt	i	-22	-4	17	4.8
O=C(CN1CCN(c2ncccn2)CC1)NCCC1=CCCCC1	nt	nt	nt	nt	-1	nt	-2	6	-25	?
COc1ccc(CN2CCN(Cc3cccc(F)c3)CC2)cc1OC	9	20	-0.5	2.5	-18	i	-2	?	1	0.8
COc1cnc(-c2ccccn2)nc1Oc1ccc(C(C)(C)C)cc1	-55	-80	-20	7.7	-3	i	97*	20	6	1.7
CC(C)c1ccc(C2/C(=C(/O)c3ccccc3)C(=O)C(=O)N2CCCN2CCOCC2)cc1 (stereo not given)	7	7	0.4	-2.6	8	i	2	-18	5	1.7
Cc1noc(C)c1COC(=O)/C=C/c1ccc(Cl)cc1	-23	-42	-5.0	6.9	nt	nt	-4	-3	-12	-6.5
COC(=O)C1CCN(C(c2cccs2)c2sc3nc(C)nn3c2O)CC1 (stereo not given)	11	-8	-7.0	2.6	31	i	-1	-1	-3	4.8
CCOC(=O)C1CCCN(S(=O)(=O)c2ccc3c(c2)CC(C)N3C(=O)C2CC2)C1 (stereo not given)	-18	-15	1.9	1.0	-11	i	3	-9	0	0.7
O=C1CC(NS(=O)(=O)c2cc(F)ccc2F)CN1c1cccc(F)c1 (stereo not given)	-1	3	-2.0	-2.5	-5	i	-1	2	-1	-4.8
O=C(Oc1ccccc1)Oc1ccc2c(c1)oc(=O)c1ccccc12	nt	nt	nt	3.4	?	nt	-6	3	0	-0.5
CC(CCc1ccccc1)NC(=O)C(Cc1ccccc1)NC(N)=O (stereo not given)	11	1	3.7	1.5	-5	i	-10	-2	3	0.3
CCC(C)NC(=O)c1ccc(N2CC3CC(C2)c2cccc(=O)n2C3)c(NC(=O)c2ccc(Br)o2)c1 (stereo not given)	4	8	-0.9	-1.9	4	i	-9	24	0	?
N/C(=N\OC(=O)c1cccc(Br)c1)c1ccccc1	nt	nt	nt	nt	3	nt	2	9	5	-0.2
Cn1cc(Br)c(C(=O)NN2C(=O)C3C4C=CC(C5CC45)C3C2=O)n1 (stereo not given)	5	5	-2.6	-0.7	0	i	-4	2	10	2.3
CCn1ncc(NC(=S)NCCc2ccc(OC)c(OC)c2)c1C(N)=O	1	4	0.4	-1.9	nt	i	-7	nt	19	-2.5
Other records.
SMILES	rRNA inh HTS	rRNA inh HTS OD600	rRNA inh HTS RFP	AF4-AF9 inh	ALR inh	FGF22 binding	Beta apoptosis	T cruzi inh	Calb FLC	RanGTP-Imp inh
CN1C(=O)NC(c2ccc(C(F)(F)F)cc2)C2=C1CC(C)(C)CC2=O (stereo not given)	5	17	3.4	-0.8	2	i	4	-11	4	2.4
CCCCC1(C)NC(=O)N(CC(=O)Nc2cc(S(=O)(=O)N3CCOCC3)ccc2Cl)C1=O (stereo not given)	-1	3	-2.3	4.0	-1	i	1	nt	nt	nt
CCc1ccc(NC(=O)c2cnn(-c3ccccc3)c2C2CCNCC2)cc1	8	1	2.5	2.7	-4	i	-5	-10	-11	3.3
O=C(c1ccc(F)cc1)N1CCC(C(=O)N2CCN(Cc3ccc4c(c3)OCO4)CC2)CC1	12	9	1.7	11	-16	i	-4	-1	-5	5.2
CC1(C)C(=O)Nc2ccccc2N1C(=O)COC(=O)CSc1ccc(F)cc1	12	13	6.7	0.1	1	i	-1	nt	nt	nt
Cc1ccc(N(CC(=O)NCCSc2nc3ccccc3s2)S(=O)(=O)c2ccccc2)c(C)c1	-11	-6	-4.7	1.4	nt	i	14	50	32	-0.8
Cc1ccc(C)c(OCC(=O)O/N=C(\N)c2ccccn2)c1	nt	nt	nt	nt	5	nt	-5	4	-1	-1.8
CCOC(=O)c1cc2sc(C)cc2n1CC(=O)NCCc1ccccc1	7	4	-0.4	-9.8	-1	i	17	18	23	-3.9
Cc1ccccc1CSc1nccn1-c1ccccc1	nt	nt	nt	nt	99*	nt	-12	10	-2	-0.2
CCOc1ccccc1Nc1ccc(C(=O)O)cc1N	1	0	23	1.7	10	i	-11	-6	0	4.7
O=[N+]([O-])c1ccccc1S(=O)(=O)Nc1cccc(S(=O)(=O)N2CCCC2)c1	-13	6	-2.5	-2.1	nt	i	-1	nt	nt	nt
CCS(=O)(=O)N1CCCC(C(=O)NCCCOC(C)C)C1 (stereo not given)	nt	nt	nt	nt	1	nt	-2	-12	-3	0.7
CCn1ccc(C(=O)Nc2sc3c(c2C(=O)OC)CCC3)n1	-9	-7	-1.6	-1.0	37	i	5	nt	24	nt
COc1cc(-c2nn3c(COc4ccccc4)nnc3s2)cc(OC)c1OC	nt	nt	nt	nt	-8	nt	2	0	-21	?
Cc1cccc(NC(=O)CCNS(=O)(=O)c2cccc3nonc23)c1	-13	-18	-1.6	7.9	-1	i	4	-9	3	-1.6
COc1cc(CN2CCC(C(=O)N3CCN(c4ccccc4F)CC3)CC2)cc(OC)c1OC	nt	nt	nt	nt	-12	nt	nt	33	-18	1.6
O=C(NC1CC2CCCC(C1)N2C(=O)Nc1ccccc1)c1ccncc1 (stereo not given)	nt	nt	nt	nt	2	nt	3	-13	-4	?
COc1ccc(/C=N/NC(=O)c2cc[n+]([O-])cc2)cc1OC	nt	nt	nt	nt	2	nt	-4	-10	29	-4.0
Clc1ccc(CSc2nnc(CN3CCOCC3)n2-c2ccccc2)cc1Cl	nt	nt	nt	nt	-3	nt	-13	19	14	3.9

The list is partial, so the mix of outcomes need not match the whole.
